High-throughput results: PubChem BioAssay, National Center for Advancing Translational Sciences (NCATS)
GLA inh pH 4.5: qHTS Assay for Inhibitors of Human alpha-Galactosidase at pH 4.5; purified enzyme, 4-MU-alpha-Gal fluorescence, pH 4.5; activity change, negative = inhibition, % at 105 µM; 230,000 tested, under 10 active; AID 1467, 2008; inconclusive = small, poorly fitted or top-dose-only inhibition, or a rising curve; inactive = flat fitted curve, though single readings scatter; no compound was filed as active;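 further: 0% = full activity with enzyme and -100% = basal without enzyme; dose as in the result columns while the protocol names 77 µM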
Target sequence (P06280 whole entry, looked up): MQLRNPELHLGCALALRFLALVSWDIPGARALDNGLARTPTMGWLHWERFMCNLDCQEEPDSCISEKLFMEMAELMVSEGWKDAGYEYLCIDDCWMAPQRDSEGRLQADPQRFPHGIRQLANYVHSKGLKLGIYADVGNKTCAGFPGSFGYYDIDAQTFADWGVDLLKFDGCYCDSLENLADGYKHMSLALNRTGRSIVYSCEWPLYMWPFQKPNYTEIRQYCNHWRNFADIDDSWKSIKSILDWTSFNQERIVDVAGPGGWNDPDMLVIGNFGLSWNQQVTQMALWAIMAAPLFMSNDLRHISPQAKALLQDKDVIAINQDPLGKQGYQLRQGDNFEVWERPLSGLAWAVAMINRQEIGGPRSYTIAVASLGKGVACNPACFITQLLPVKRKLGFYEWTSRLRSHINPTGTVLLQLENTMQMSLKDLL
Rango-impB inh: qHTS Assay for Inhibitors of Rango (Ran-regulated importin-beta cargo) - Importin beta complex formation. Importin subunit beta-1 (Homo sapiens), Q14974. 340,000 compounds, 0.031% hits. Potency, µM (highest dose often 92.2 µM), for inactives: top-dose inhibition of complex formation. AID 540263, 2011. Rango CFP/YFP FRET sensor + importin beta, 45 min; active = rising FRET ratio curve, often small or poorly fitted; inconclusive = mostly compound fluorescence or quenching in the first reads; inactive = flat curves in all reads;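 further: potency means the concentration at half of the fitted maximal effect; 0% = DMSO wells and 100% = buffer wells lacking importin beta; nearly all actives have a fitted effect of over 15% in size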
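FRET biosensor (snurportin 1 IBB flanked by EYFP and cerulean), 50 nM, with compound 5 min, then 0.125 microM importin beta in PBS, 1 mM DTT, 0.02% Tween-20, 0.1% BSA. CFP/YFP ratio read after 45 min at room temperature; pre-read flags interference.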
Rango dissoc inh: qHTS Assay for Inhibitors of RanGTP induced Rango (Ran-regulated importin-beta cargo) - Importin beta complex dissociation | 340,000 compounds, 0.071% hits | AID 540253, 2011 | Biochemical FRET Rango-importin beta, RanGTP-induced dissociation | Potency, µM (top dose mostly 46.1 µM), for the others: top-dose activity change, negative = inhibition; active means falling FRET ratio curve, often poorly fitted, with flat reads before Ran was added; inconclusive means other falling curves, or compound fluorescence or quenching; inactive means flat or rising ratio curve;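 further: potency means the concentration at half of the fitted maximal effect; % of control where 0% means no effect; nearly all actives have a fitted effect of over 45% in size; -100% = wells without RanGTP and RCC1; the record marks most hits as doubtful in a second field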
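Rango (0.1 uM)–importin beta (0.25 uM) complex; RanGTP-RCC1 trigger; 45 min RT; CFP/YFP FRET read.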
miR-21 FLuc: qHTS Assay for Modulators of miRNAs and/orActivators of miR-21 | HeLa miR-21 FLuc reporter, luciferase, 48 h | Potency, µM (highest dose often 38.3 µM), for the others: top-dose reporter change, positive = more light | 340,000 tested, under 10 active; active = well fitted rising curve with a large enough effect; inconclusive = small, poorly fitted or top-dose-only effect; inactive = no such curve, though single readings can be large or run the other way;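 further: % of control where 0% means no effect; miR-21 action dims this reporter so a rising signal means less miR-21 action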
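Using DMEM plus 10% FBS, HeLa miR-21-FLuc cells are incubated with test compounds (final up to about 40uM) for 48 hours; firefly luciferase signal is then imaged following reagent-mediated lysis.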
An asterisk follows results filed as active; ? = inconclusive; · = no result given.

cpd	molecule	GLA inh pH 4.5	Rango-impB inh	Rango dissoc inh	miR-21 FLuc
1	CC(=O)N1c2c(cc(Br)cc2S(=O)(=O)NCc2cccnc2)CC1C (stereo unspecified)	0	2.0%	12%	4%
2	COc1ccc(NC(C)=O)cc1NC(=O)c1cccc(S(=O)(=O)N2CCN(Cc3ccccc3)CC2)c1	·	-3.5%	-24%	·
3	Cc1c(CN(C)Cc2cn(C)nc2-c2ccccc2F)[nH]c2ccccc12	-8	0.0%	2%	6%
4	O=C(NC1(C(F)(F)F)NC(=O)N(c2ccccc2F)C1=O)c1ccncc1 (stereo unspecified)	-6	-3.8%	15%	1%
5	COc1ccc(-c2n[nH]c(C)c2-c2cc(OC)ccc2O)cc1	2	-1.2%	2%	5%
6	O=C1c2ccccc2C(=O)N1CCc1nn[nH]n1	8	0.9%	-1%	-3%
7	O=C(O)Cc1ccc(NC(=O)C(c2ccccc2)c2ccccc2)cc1	6	-2.6%	-2%	-2%
8	CC(C)C(OC(=O)c1oc2ccccc2c1CSC1CCCCC1)C(=O)NC(N)=O (stereo unspecified)	-1	·	·	-2%
9	Cc1ccc(NC(=O)COC(=O)c2ccc3c(c2)OCO3)cc1S(=O)(=O)N1CCCCC1	1	1.9%	18%	2%
10	OC(COc1cccc2ccccc12)CN1CCN(c2ccccn2)CC1 (stereo unspecified)	-3	0.0%	0%	-11%
11	COc1ccc(C(=O)N(CN2CCCC2=O)c2nccs2)cc1OC	4	-0.1%	-13%	-1%
12	C=CCn1c(=O)c2ccccc2n2c(SCc3cc(=O)n4ccsc4n3)nnc12	4	4.2%	12%	-2%
13	CC(c1ccccc1)N1CNc2c(c(=O)n(C)c(=O)n2C)C1 (stereo unspecified)	-6	0.0%	-14%	2%
14	COc1ccc(Cl)cc1NC(=O)NC(C)C	-2	-0.2%	-3%	-3%
15	CN1C(=O)c2ccc(NC(=O)C3CC3)cc2C1=O	·	-0.3%	-13%	0%
16	COc1ccc(-c2noc(-c3ccc(Br)o3)n2)cc1OC	4	-6.1%	4%	-21%
17	CN1C(C(=O)NCc2ccco2)=CC(c2ccc(F)cc2)=NS1(=O)=O	·	1.4%	38%	-1%
18	Cc1noc(C)c1S(=O)(=O)Nc1c(C)n(C)n(-c2ccccc2)c1=O	6	-0.1%	12%	-4%
19	CCNC(=O)COC(=O)c1ccc(NS(=O)(=O)c2ccc3c(c2)OCCO3)cc1	0	-1.0%	-7%	-3%
20	COc1ccc(NC(=O)COC(=O)CNC(=O)c2cccs2)cc1Cl	·	-2.2%	1%	·
21	O=C(N/N=C1/CCS(=O)(=O)c2ccc(F)cc21)c1ccccn1	4	1.1%	0%	-34%
22	Cc1c(S(=O)(=O)N2CCCCC2)c(=O)n(C)c(=O)n1C	·	4.4%	1%	·
23	COc1cc(C)c(NC(=S)NCCCN2CCOCC2)cc1OC	9	2.1%	2%	-1%
24	O=C(CCc1ccccc1)NC(=S)Nc1cccc(C(=O)O)c1	·	1.5%	-3%	-60%
25	CC1Oc2ccccc2C=C1/C=N/Nc1ccc(C(=O)O)cc1 (stereo unspecified)	-7	?	?	-41%

Reprinted from the part before: five compounds, followed by the next part.
cpd	molecule	GLA inh pH 4.5	Rango-impB inh	Rango dissoc inh	miR-21 FLuc
21	O=C(N/N=C1/CCS(=O)(=O)c2ccc(F)cc21)c1ccccn1	4	1.1%	0%	-34%
22	Cc1c(S(=O)(=O)N2CCCCC2)c(=O)n(C)c(=O)n1C	·	4.4%	1%	·
23	COc1cc(C)c(NC(=S)NCCCN2CCOCC2)cc1OC	9	2.1%	2%	-1%
24	O=C(CCc1ccccc1)NC(=S)Nc1cccc(C(=O)O)c1	·	1.5%	-3%	-60%
25	CC1Oc2ccccc2C=C1/C=N/Nc1ccc(C(=O)O)cc1 (stereo unspecified)	-7	?	?	-41%
26	COc1ccc(C(=O)OCC(=O)NCC2CCCO2)c(F)c1 (stereo unspecified)	·	0.3%	-3%	·
27	Cc1cc(-c2nn3c(C)nnc3s2)ccc1NC(=O)C(C)(C)C	·	3.3%	4%	·
28	O=C(COc1ccccc1-c1ccccc1)NN=C1CCCC1	0	-0.3%	-15%	21%
29	CCSc1ncc(Cl)c(C(=O)N(Cc2ccc(N(C)C)cc2)C2CCS(=O)(=O)C2)n1 (stereo unspecified)	-1	-2.1%	-11%	-10%
30	O=C(c1cc(-c2cccc(O)c2)on1)N1CCOCC1	-2	-0.8%	-6%	-10%
31	Cc1ccc(-n2cnc(N)c2C(=O)c2cccc([N+](=O)[O-])c2)cc1	3	2.3%	-4%	10%
32	CC1CN(C(=O)c2ccc(CNS(=O)(=O)c3cccc(Cl)c3)cc2)CC(C)O1 (stereo unspecified)	·	-1.9%	?	7%
33	O=C1C(Cl)=C(Oc2ccccc2)C(=O)c2ccccc21	·	-0.9%	0%	·
34	CCOc1ccc(C(=O)CSc2nnc3ccccn23)cc1	3	4.0%	-10%	-37%
35	O=[N+]([O-])c1ccccc1CN1CCN(S(=O)(=O)c2ccccc2)CC1	·	4.2%	8%	·
36	Cc1ccc(C(CC(=O)O)Nc2nc(N3CCCCC3)nc(N3CCCCC3)n2)cc1 (stereo unspecified)	-2	3.6%	19%	-4%
37	Cc1c(CCC(=O)N2CCC[C@H]2C(=O)O)c(=O)oc2c(C)c3oc4c(c3cc12)CCCC4	·	-0.6%	1%	12%
38	CCC(C)NC(=O)COC(=O)c1ccccc1OCC(=O)Nc1ccc(Br)cc1 (stereo unspecified)	-3	-1.3%	-18%	-4%
39	COc1cc(/C=C(/C#N)C(=O)NC(C)c2ccccc2)cc(OC)c1O (stereo unspecified)	·	?	?	1%
40	CCCn1c(N)c(N2CCCCC2)c(=O)n(CC(=O)Nc2ccccc2C(F)(F)F)c1=O	·	2.3%	-10%	·
41	COc1ccc(NCC(=O)n2c(C)c(C)c3ccccc32)cc1	2	-1.3%	-10%	14%
42	CCN(CC)S(=O)(=O)c1ccc(-c2nnc(SCC(C)=O)o2)cc1	-3	-5.1%	-1%	0%
43	CNC(=S)N1N=C(c2ccc(Br)cc2)CC1c1ccc(Br)cc1 (stereo unspecified)	-5	3.0%	12%	-3%
44	Cc1ccc(NS(=O)(=O)c2cc(C(=O)NCCCN(C)C)ccc2Cl)cc1Cl	·	-2.0%	14%	·
45	CCN(CC)C(=S)SC1CCCCN(C(=O)c2ccccc2)C1=O (stereo unspecified)	-8	0.5%	2%	-1%
46	Cc1nc(C(F)(F)F)ccc1C(=O)NN1CCOCC1	·	-0.9%	2%	-2%
47	CCO[C@H]1OC(C(N)=O)=C[C@@H](c2csc3ccccc23)[C@@H]1CCCO	2	0.5%	4%	-1%
48	Cc1ccc(N=Nc2c(C)[nH][nH]c2=O)c(C)c1	-7	3.7%	5%	-10%
49	O=c1cc(C(F)(F)F)[nH]c2ccccc12	3	-3.2%	-12%	0%
50	COCC(=O)Nc1nnc(C2CCCCC2)s1	-7	-2.0%	0%	-49%

Additional structures follow.
cpd	molecule	GLA inh pH 4.5	Rango-impB inh	Rango dissoc inh	miR-21 FLuc
51	COc1ccc(-c2nc(CS(=O)CC(=O)NCCN3CCCCC3C)c(C)o2)cc1OC (stereo unspecified)	·	1.4%	4%	-3%
52	COc1ccc(N(C(=O)CNC(=O)c2cccs2)C(C(=O)NCC2CCCO2)c2ccccc2)c(OC)c1 (stereo unspecified)	·	5.4%	-11%	-1%
53	N/C(=N\NS(=O)(=O)c1cc(C(F)(F)F)cc(C(F)(F)F)c1)c1ccccn1	-3	5.0%	33%	-11%
54	Cc1c(NC(=O)CCCOc2ccccc2)cccc1[N+](=O)[O-]	-11	4.0%	-7%	-15%
55	CC(C)(C)c1ccc(C(=O)NC(=S)Nc2sc3c(c2C#N)CCC3)cc1	7	0.1%	1%	-20%
56	COc1ccc(NS(=O)(=O)c2ccc(NC(=S)NC(=O)/C=C/c3ccc(C)cc3)cc2)nn1	-1	2.1%	9%	-8%
57	CCOC(=O)c1c(-c2ccc(-c3ccccc3)cc2)csc1NC(=O)CCC(=O)O	·	-0.8%	6%	-2%
58	CC(=O)Nc1sc2c(c1C(N)=O)CCN(Cc1ccccc1)C2	4	?	?	-3%
59	CN(C)S(=O)(=O)c1cc([N+](=O)[O-])ccc1N1CCCCCC1	1	1.1%	6%	-8%
60	Cc1ccc(C(=O)OCC(=O)Nc2cccc(Cl)c2C)c(O)c1	-10	-2.2%	6%	0%
61	O=[N+]([O-])c1ccccc1N=NNc1ccccc1	·	-0.7%	?	·
62	CNc1nc(Cl)c(SC)c(NC2CCCCC2)n1	6	1.4%	-13%	-2%
63	CN1CCN(C(=O)C2C3C=CC(C3)C2C(=O)O)CC1 (stereo unspecified)	1	-1.7%	0%	-2%
64	O=c1cc(CSc2nnnn2-c2ccccc2)nc(Nc2ccc(F)cc2)[nH]1	1	-0.1%	-20%	20%
65	O=C1/C(=N\S(=O)(=O)c2cccs2)C([n+]2ccccc2)=C([O-])c2ccccc21	-4	0.6%	24%	4%
66	O=C(NCCCc1nc2ccccc2[nH]1)c1cccs1	-1	-0.2%	-20%	-1%
67	Cc1nc(N2CCOCC2)c2oc3ccccc3c2n1	0	0.2%	2%	-11%
68	Cc1ccc(NC(=O)c2ccc(Cl)cc2[N+](=O)[O-])nc1	1	0.7%	-5%	2%
69	CSc1ccccc1OCc1cc(C(=O)N2CCN3CCCC3C2)no1 (stereo unspecified)	·	-1.0%	2%	-21%
70	Fc1ccccc1C1CCN(Cc2nc(CC3CC3)no2)C1 (stereo unspecified)	-1	4.4%	-12%	-40%
71	O=C(c1ccccc1)c1nn(-c2cccc(Cl)c2)c2nc(-c3ccccc3)cc(=O)n12	1	6.9%	-13%	-1%
72	CCc1ccc(O)c(N=Cc2ccccc2O)c1	-13	-5.4%	-10%	-12%
73	CN(Cc1ccccc1F)C(=O)CN1c2cccc3cccc(c23)S1(=O)=O	·	2.4%	-8%	·
74	Cc1cccc(N(C2C=CS(=O)(=O)C2)S(=O)(=O)c2ccccc2)c1 (stereo unspecified)	-6	4.7%	1%	-2%
75	Cc1ccc(-n2nc3c(=O)n(CC(=O)NCc4ccccc4)nc(C)c3c2C)cc1	·	-0.7%	-22%	-1%

Following part:
cpd	molecule	GLA inh pH 4.5	Rango-impB inh	Rango dissoc inh	miR-21 FLuc
76	Cc1[nH]c2ccccc2c1/C=N/Nc1ccc(F)cc1F	0	·	·	-48%
77	COc1ccc(-c2cc3ccc(O)cc3oc2=O)cc1	·	?	?	-32%
78	COc1ccc(OC)c(C2=C[N+](=O)C(C)(C)C(C)(C)N2[O-])c1	-9	5.0%	1%	-2%
79	Nc1cccc(N2C(=O)c3cccc4c(N)ccc(c34)C2=O)c1	·	?	?	-10%
80	COc1ccc(CCNC(=O)c2ccc(Cl)nc2)cc1	·	1.2%	6%	-7%
81	CCOc1nc(Nc2ccc(F)cc2)nc(N2CCN(c3ccc(OC)cc3)CC2)n1	9	2.8%	5%	-1%
82	O=c1[nH]c2ccc(N/C(=N/S(=O)(=O)c3ccccc3)c3ccccc3)cc2[nH]1	-2	-0.1%	2%	-6%
83	Oc1ccc(C(=S)N2CCN(Cc3ccccc3)CC2)cc1	3	2.2%	-6%	0%
84	O=C(NC(Cc1c[nH]c2ccccc12)C(=O)Nc1ccc(OC(F)(F)F)cc1)c1cccs1 (stereo unspecified)	-7	-1.4%	1%	27%
85	CCNc1nc(Oc2ccc(=O)n(-c3ccccc3)n2)nc(N2CCOCC2)n1	1	-0.2%	-12%	-14%
86	O=C(CN1CCN(c2ccccc2)CC1)Nc1ccc(Oc2ccccc2)cc1	-4	6.4%	13%	10%
87	Cc1ccc(Cn2ccc(NC(=O)c3cc(-c4ccc(F)cc4)on3)n2)cc1	3	-5.1%	-5%	4%
88	CN1CCc2nc(SCC(=O)Nc3ccc(Cl)cc3)c(C#N)cc2C1	·	?	?	·
89	O=c1[nH]c(N2CCN(Cc3ccc4c(c3)OCO4)CC2)nc2c1CCCC2	-3	6.3%	-11%	1%

This is a subset; rates above refer to the full screens.
